# High-throughput results deposited in PubChem by Southern Research Institute.
# Mtb growth – Mycobacterium tuberculosis H37Rv growth inhibition, cell based, confirmatory dose response (AID 1949); most inactive calls were filed without a number and no value below 0 was filed; inhibition, % at 10 µg/mL; hits with a dose series show IC50 in µg/mL; 100,000 compounds, 1.6% hits;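 active = confirmed in a dose series; inconclusive = about 50% or more but not retested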;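 also: bacteria grown 7 days with compound before Alamar blue readout; 0% = untreated bacteria and 100% = reference antibiotic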
# * hit, by the source's call; i = inactive; ? = inconclusive. An excerpt (hit frequency here may not be typical).
# Start of the data: the first 16 compounds as a preview:
SMILES,Mtb growth
O=C(NCCC1=CCCCC1)c1ccc(Br)s1,i
CCn1c(SCc2nc3ccccc3[nH]2)nnc1-c1cccnc1,14.0%
NS(=O)(=O)c1ccc(NC(=O)CSc2nc3sc4c(c3c(=O)[nH]2)CCCC4)cc1,i
COc1ccc(CCNCc2ccc(SC)cc2)cc1,3.6%
Cc1onc(-c2c(F)cccc2Cl)c1C(=O)Nc1ccccc1Cl,i
O=C(CSc1nc2ccccc2c(=O)[nH]1)Nc1ccc2ccccc2c1,i
CCc1ccc(N(CC(=O)Nc2ccc(F)cc2F)S(C)(=O)=O)cc1,i
CC(=O)c1cccc(NC(=S)N2CCN(CCN3C(=O)c4cccc5cccc(c45)C3=O)CC2)c1,i
CC(=O)Nc1cccc(NC(=O)C(Cl)Cl)c1,i
O=C(O)c1c[nH]c2c(Cl)c(Cl)ccc2c1=O,i
CCOC(=O)N1CCN(C(=O)CN(c2ccc(Br)c(C)c2)S(C)(=O)=O)CC1,i
COc1ccc(NC(=O)NCc2ccc(C(=O)O)cc2)cc1OC,i
O=C(COc1ccc(Br)cc1)Nc1ccc(S(=O)(=O)Nc2ccc(F)cc2)cc1,i
Cc1cc(F)ccc1S(=O)(=O)Nc1ccc2oc3c(c2c1)C(=O)CC(C)(C)C3,i
Cc1ccc(C)c(-c2csc(Nc3ccc(O)c(C(=O)O)c3)n2)c1,i
CCCCC(CC)C(=O)Nc1ccc2c(c1)OCCO2 (stereo not drawn),i

# The list itself (from the top)
SMILES,Mtb growth
O=C(NCCC1=CCCCC1)c1ccc(Br)s1,i
CCn1c(SCc2nc3ccccc3[nH]2)nnc1-c1cccnc1,14.0%
NS(=O)(=O)c1ccc(NC(=O)CSc2nc3sc4c(c3c(=O)[nH]2)CCCC4)cc1,i
COc1ccc(CCNCc2ccc(SC)cc2)cc1,3.6%
Cc1onc(-c2c(F)cccc2Cl)c1C(=O)Nc1ccccc1Cl,i
O=C(CSc1nc2ccccc2c(=O)[nH]1)Nc1ccc2ccccc2c1,i
CCc1ccc(N(CC(=O)Nc2ccc(F)cc2F)S(C)(=O)=O)cc1,i
CC(=O)c1cccc(NC(=S)N2CCN(CCN3C(=O)c4cccc5cccc(c45)C3=O)CC2)c1,i
CC(=O)Nc1cccc(NC(=O)C(Cl)Cl)c1,i
O=C(O)c1c[nH]c2c(Cl)c(Cl)ccc2c1=O,i
CCOC(=O)N1CCN(C(=O)CN(c2ccc(Br)c(C)c2)S(C)(=O)=O)CC1,i
COc1ccc(NC(=O)NCc2ccc(C(=O)O)cc2)cc1OC,i
O=C(COc1ccc(Br)cc1)Nc1ccc(S(=O)(=O)Nc2ccc(F)cc2)cc1,i
Cc1cc(F)ccc1S(=O)(=O)Nc1ccc2oc3c(c2c1)C(=O)CC(C)(C)C3,i
Cc1ccc(C)c(-c2csc(Nc3ccc(O)c(C(=O)O)c3)n2)c1,i
CCCCC(CC)C(=O)Nc1ccc2c(c1)OCCO2 (stereo not drawn),i
Cc1cccc(C)c1OCC(=O)Nc1sc(C)c(C)c1C(N)=O,i
Cc1nc(SCC(=O)Nc2ccc3c(c2)OCO3)c2c3c(sc2n1)CCC3,45.9%
CCOc1ccc(C(=O)NC(=S)Nc2ccccc2N2CCCC2)cc1,i
COc1ccc(NC(=S)N2CCN(S(=O)(=O)c3ccc(F)cc3)CC2)c(OC)c1,i
Cc1ccc(S(=O)(=O)N(C)CC(=O)Nc2ccccc2Sc2ccccc2)cc1,i
COc1c(C)cccc1C(=O)Nc1ccc(N2CCOCC2)c(Cl)c1,i
Cc1ccc(/C=C(/C#N)c2ccc(Br)cc2)o1,1.7%
Cn1c(SCC(=O)Nc2ccc(Br)cc2)nnc1-c1ccc(Cl)cc1,46.3%
O=C(CN1C(=O)c2ccccc2S1(=O)=O)Nc1cc(C(F)(F)F)ccc1Cl,i
# Continued:
SMILES,Mtb growth
CC(=O)NNc1nc(-c2ccccc2)c2cc(Cl)ccc2n1,1.0%
Cc1onc(-c2ccccc2)c1C(=O)Nc1cccc2nsnc12,2.5%
CC(=O)NC(Cc1c[nH]c2ccccc12)C(=O)NCc1ccc(C(C)(C)C)cc1 (stereo not drawn),i
Cc1noc(C)c1C(=O)Nc1nc(C23CC4CC(CC(C4)C2)C3)cs1,4.4%
CCN(CC)C(=O)COc1ccc(S(=O)(=O)NCCc2ccccc2)cc1,i
COc1ccc(Cl)cc1NC(=O)CN(C)S(=O)(=O)c1ccc(C)cc1,i
O=C(CSc1nnnn1-c1ccc(I)cc1)c1ccc(F)cc1,i
Cc1cc(C)cc(C(=O)N(C(C)C)C(C)C)c1,0.1%
CC(C)(C)CC(C)(C)NC(=O)c1ccc([N+](=O)[O-])cc1,0.3%
Cn1c(SCC(=O)Nc2ccc(C(=O)O)cc2)nnc1-c1ccc(Cl)cc1Cl,i
CCOC(=O)c1ccc(NC(=O)CSc2nnc(-c3ccccc3C)n2CC)cc1,i
COC(=O)c1sccc1NC(=O)c1sc2cccc(F)c2c1Cl,i
COc1ccccc1N(C(C)=O)c1nc(C)cc(C)c1C#N,2.3%
Cc1cccc(NC(=O)C(C)Oc2cccc(Cl)c2)c1 (stereo not drawn),28.3%
CCCC(NC(=O)OCc1ccccc1)C(=O)Oc1ccc2c(C(F)(F)F)cc(=O)oc2c1 (stereo not drawn),i
Cc1cc(C)nc(/N=C(\NC(=O)c2ccccc2)Nc2cc(C(F)(F)F)ccc2Cl)n1,i
COc1ccc(CC(=O)Nc2nc3ccccc3s2)cc1OC,i
O=C(COc1ccc(C2CCCCC2)cc1)Nc1cc(-c2nc3ncccc3o2)ccc1Cl,8.1%
COCCNC(=S)NNC(=O)C(C)(C)O,0.0%
COc1ccc(Cl)cc1C(=O)NC1C2CC3CC(C2)CC1C3 (stereo not drawn),2.5%
O=C(Cc1cccs1)NCCCCc1ccccc1,i
CNC(=S)NNC(=O)c1cc(OC)c(OC)c(OC)c1,8.3%
CC(=O)Nc1ccc(NC(=O)C2CCN(C(=O)c3ccc([N+](=O)[O-])cc3)CC2)cc1,i
c1ccc(-c2csc3ncnc(NCCN4CCOCC4)c23)cc1,i
Cc1ccc(NC(=O)C2CCN(C(=O)c3ccc(F)cc3)CC2)cc1Cl,i
# (list continues)
SMILES,Mtb growth
CCOc1ccccc1C(=O)Nc1nnc(C2CCCCC2)s1,3.0%
Cc1c(/C(O)=C2\C(=O)C(=O)N(Cc3cccnc3)C2c2ccccn2)cnn1-c1ccccc1 (stereo not drawn),i
CC(C)(C)C1(c2ccccc2)NC(=O)NC1=O (stereo not drawn),0.0%
COc1cc(C(=O)NCCOc2ccccc2C(C)C)cc(OC)c1OC,i
COc1ccc(C2C(C#N)=C(N)Oc3n[nH]c(C)c32)cc1CSc1nc2ccccc2o1 (stereo not drawn),1.4%
COc1ccc(C2(CNC(=O)Cc3ccccc3)CCOCC2)cc1,0.9%
O=C(OCc1nnc(-c2ccccc2)o1)C1c2ccccc2Oc2ccccc21,44.7%
CCOC(=O)C(CC)Oc1ccc2c(C)cc(=O)oc2c1C (stereo not drawn),i
CCc1nn(-c2ccccc2)c(=S)c2ccccc12,i
O=C1NC(=O)N(c2ccc(Cl)c(Cl)c2)C1=O,i
Cc1ccc(NC(=O)CCCCC(=O)Nc2ccc(C)c(F)c2)cc1F,i
O=C1CC(N2CCCCC2)C(=O)N1c1cccc([N+](=O)[O-])c1 (stereo not drawn),i
CC(NC(=O)CC12CC3CC(CC(C3)C1)C2)C(=O)O (stereo not drawn),i
CC(=O)Nc1ccc(NC(=O)C2CC(=O)N(c3ccccc3F)C2)cc1 (stereo not drawn),i
CCOc1ccc(C(=S)N2CCN(C(c3ccccc3)c3ccccc3)CC2)cc1,i
COc1ccc([N+](=O)[O-])cc1COc1cc(C)cc2oc(=O)c3c(c12)CCC3,i
Cc1ccc(Cl)cc1N1CCN(C(=S)Nc2cccc(Cl)c2C)CC1,i
Cc1cccc(C2(C)CC(C)(C)N(C(=O)CSc3ncn[nH]3)c3ccccc32)c1 (stereo not drawn),i
COc1c(Cl)cc(C(=O)Nc2cccc(-c3nc4ccccc4[nH]3)c2)cc1Cl,?
CCOc1ccc(-c2cc(OC(=O)c3ccco3)c3c(C)oc(C)c3c(=O)c2)cc1,i
Nc1ccccc1C(=O)NCc1ccc(F)cc1,i
CCC(C)c1ccc(N2CC(C(=O)Nc3ccc(NC(C)=O)cc3)CC2=O)cc1 (stereo not drawn),i
CC1(C)C(=O)OC(C(=O)c2ccc(Cl)cc2)C(C)(C)C1=O (stereo not drawn),i
CCCOc1ccc(N2C(=O)CC(NCc3ccccc3)C2=O)cc1 (stereo not drawn),i
Cc1ccc(CC(=O)Nc2nc(C)cs2)cc1,i
# Going on with the list:
SMILES,Mtb growth
O=C(NC1CC1)c1ccc(CN2CCc3ccccc3C2)cc1,i
CC(=O)c1ccc(N2CCN(C(=S)Nc3ccc(Cl)c(Cl)c3)CC2)cc1,3.5%
O=C(CN(Cc1ccc(Cl)cc1)S(=O)(=O)c1ccc(Br)cc1)N1CCCCCC1,6.5%
CCOC(=O)c1ccc(NC(=O)C2CCC(=O)N2S(=O)(=O)c2ccc(C)cc2)cc1 (stereo not drawn),i
COc1ccccc1C1C(C(=O)c2ccco2)=C(O)C(=O)N1c1nc2ccc(F)cc2s1 (stereo not drawn),i
Cc1cc(C)c2c(n1)sc1c(N3CCOCC3)ncnc12,i
CCCOc1ccc(Nc2nnc(-c3cc4cc(Br)ccc4oc3=O)s2)cc1,i
O=C(c1cccc(C(=O)N2CCN(c3ccccc3F)CC2)n1)N1CCN(c2ccccc2F)CC1,i
S=C(NC1CCCC1)N1CCN(c2ncccn2)CC1,i
COc1ccccc1C1C2=C(CC(C)(C)CC2=O)Nc2[nH]c(=S)[nH]c(=O)c21 (stereo not drawn),i
Cc1cc(OC(=O)C2CCCCC2)c2c3c(c(=O)oc2c1)CCC3,i
Cc1c(Cl)cccc1NC(=S)NN1CCOCC1,i
Cc1ccccc1NC(=O)c1[nH]cnc1C(=O)Nc1ccc(Cl)cc1,3.0%
CC(C)(c1ccccc1)c1ccc(OCCN)cc1,4.6%
O=C(NC(=S)Nc1cc(C(F)(F)F)ccc1Cl)c1cccs1,i
O=C(NC(c1ccccc1)C1CCCC1)c1ccccc1Cl (stereo not drawn),i
Cc1ccc(N(CC(=O)NC2CCCC2)S(C)(=O)=O)cc1Cl,i
O=C(Nc1ccc(-c2nnc(-c3ccccc3)o2)cc1)C(F)(F)F,0.3%
Cc1onc(-c2ccccc2)c1C(=O)Nc1nc2c(s1)CCCC2,i
O=c1c2c(n3c(SCc4ccccc4)nnc3n1-c1ccccc1)-c1ccccc1CC21CCCC1,29.4%
Cc1ccc2nc(C)cc(Nc3cccc(O)c3)c2c1,i
COC(=O)c1ccc(C2C(Oc3ccccc3)C(=O)N2CCc2ccc(OC)c(OC)c2)cc1 (stereo not drawn),i
Cc1occc1C(=O)Nc1sc(C)c(C)c1C(=O)NC1CCCCC1,i
O=C(CN(c1ccc(F)cc1)S(=O)(=O)c1ccc2c(c1)OCCO2)Nc1ccc(F)c(F)c1,i
Cc1cc(-c2nc3ncccc3o2)ccc1NC(=S)NC(=O)Cc1ccc(Cl)cc1,i
# (next part)
SMILES,Mtb growth
N#Cc1c(NC(=O)c2cnn3c2NC(c2ccccc2)CC3C(F)(F)F)sc2c1CCC2 (stereo not drawn),i
Cc1cc(C)c(C#N)c(SCC(=O)c2cc(C)n(CCc3ccccc3)c2C)n1,1.2%
Cc1nc(NC(=O)COc2ccccc2)sc1C(=O)N(C)C,i
CN(C1CCCCC1)S(=O)(=O)c1ccc(NC(=O)C(F)(F)F)cc1,i
Cc1cccc(C)c1OCc1nnc(SCC(=O)Nc2nccs2)n1-c1ccccc1,i
Cc1ccc2cccc(OCc3nnc(SCC(N)=O)n3C)c2n1,i
Cc1ccc(S(=O)(=O)NC(=O)Oc2ccc(C(C)(C)C)cc2)cc1,i
COC(=O)c1ccc(COC(=O)c2ccc(N(C)C)cc2)cc1,8.5%
O=C(c1cccnc1)N1CCN(C(=O)c2cccc(Cl)c2)CC1,i
COc1ccc(Cl)cc1NC(=O)CCCC(=O)O,0.1%
O=C(NC(=S)Nc1cccc([N+](=O)[O-])c1)C(c1ccccc1)c1ccccc1,i
C=CCOc1c(Br)cc(CNn2cn[nH]c2=S)cc1OC,i
Cc1cc(C)c(C)c(OCC(=O)Nc2ccc(C(C)C)cc2)c1,i
S=C(NC1c2ccccc2Oc2ccccc21)c1ccccc1,i
COc1ccc(OC)c(C2Nc3ccc(C(=O)c4ccccc4)cc3NC3=C2C(=O)CCC3)c1 (stereo not drawn),1.1%
COc1ccc(C(=O)O)cc1NC(=S)NC(=O)c1ccco1,1.8%
COc1cc(CO)cc(I)c1OCc1ccc([N+](=O)[O-])cc1,4.2%
Cc1cc(C)c(C#N)c(SCCS(=O)(=O)c2ccc(C(C)(C)C)cc2)n1,i
Cc1cccc(C(=O)NC2C(=O)NNC2c2ccc(Cl)cc2)c1 (stereo not drawn),i
CCCC(C)NS(=O)(=O)c1cc(OC)ccc1OC (stereo not drawn),i
O=C(Nc1c(F)cccc1F)c1cccc([N+](=O)[O-])c1,i
c1ccc(CN2CCN(Cc3ccc4ccccc4c3)CC2)nc1,30.4%
COc1ccc(N(CC(=O)NCc2ccc(Cl)cc2Cl)S(C)(=O)=O)cc1OC,i
Cn1cc(C(=O)c2ccccc2)cc1-c1nc2ccccc2n1C,i
O=C(O)c1ccc2c(c1)C(=O)N(C(Cc1ccccc1)C(=O)O)C2=O (stereo not drawn),i
# Following part:
SMILES,Mtb growth
CC1CCc2c(sc3nc(SCC(=O)N4CCOCC4)n(Cc4ccccc4)c(=O)c23)C1 (stereo not drawn),5.1%
O=C(CC(NCc1ccco1)C(=O)O)Nc1ccc(Cl)cc1Cl (stereo not drawn),i
CC1C(c2ccc(Cl)cc2)NC(c2ccc(Cl)cc2)C(C)C1(O)c1ccc(F)cc1 (stereo not drawn),i
COc1ccc(C(C)=O)cc1COc1cccc2cccnc12,i
N#Cc1ccccc1NC(=O)CSc1n[nH]c(N)n1,i
Nc1c(C(=O)c2ccc3c(c2)OCCO3)sc2nc(-c3ccncc3)cc(C(F)(F)F)c12,i
COC(=O)c1ccc(OCC(=O)NCc2ccc(C)cc2)c(OC)c1,0.7%
C=CCNC(=O)C12CC3CC(C1)CC(C(=O)NCC=C)(C3)C2,i
